# GLA inh pH 4.5 = alpha-galactosidase A (human) inhibition, pH 4.5; purified enzyme, 4-MU-alpha-Gal fluorescence, pH 4.5; activity change, negative = inhibition, % at 105 µM; 230,000 tested, under 10 active; inconclusive = small, poorly fitted or top-dose-only inhibition, or a rising curve; inactive = flat fitted curve, though single readings scatter; no compound was filed as active;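 further: 0% = full activity with enzyme and -100% = basal without enzyme; dose as in the result columns while the protocol names 77 µM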
# Target sequence (P06280 whole entry, looked up): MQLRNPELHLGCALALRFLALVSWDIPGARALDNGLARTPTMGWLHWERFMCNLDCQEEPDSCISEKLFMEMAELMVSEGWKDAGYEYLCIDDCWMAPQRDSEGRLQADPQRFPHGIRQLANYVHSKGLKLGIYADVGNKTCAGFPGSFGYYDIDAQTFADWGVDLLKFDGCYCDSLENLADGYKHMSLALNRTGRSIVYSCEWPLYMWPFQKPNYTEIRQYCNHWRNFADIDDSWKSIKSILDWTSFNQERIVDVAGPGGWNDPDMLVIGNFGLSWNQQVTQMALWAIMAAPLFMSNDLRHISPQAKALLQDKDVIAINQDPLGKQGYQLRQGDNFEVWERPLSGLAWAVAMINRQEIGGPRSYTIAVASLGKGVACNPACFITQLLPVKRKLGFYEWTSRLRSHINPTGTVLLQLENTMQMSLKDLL
# Rango-impB inh = prevents formation of the Rango-importin beta complex; hit rate 0.031% among 340,000; Rango CFP/YFP FRET sensor + importin beta, 45 min; AID 540263; Potency, µM (top dose mostly 92.2 µM), without a hit: top-dose inhibition of complex formation; Q14974; active = rising FRET ratio curve, often small or poorly fitted; inconclusive = mostly compound fluorescence or quenching in the first reads; inactive = flat curves in all reads;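 further: potency means the concentration at half of the fitted maximal effect; 0% = DMSO wells and 100% = buffer wells lacking importin beta; nearly all actives have a fitted effect of over 15% in size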
#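 FRET biosensor (snurportin 1 IBB flanked by EYFP and cerulean), 50 nM, with compound 5 min, then 0.125 microM importin beta in PBS, 1 mM DTT, 0.02% Tween-20, 0.1% BSA. CFP/YFP ratio read after 45 min at room temperature; pre-read flags interference.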
# miR-21 FLuc = raises the signal of a miR-21 reporter | HeLa miR-21 FLuc reporter, luciferase, 48 h | Potency, µM (series often up to 38.3 µM), for the others: at the highest dose reporter change, positive = more light | 340,000 tested, under 10 active; active = well fitted rising curve with a large enough effect; inconclusive = small, poorly fitted or top-dose-only effect; inactive = no such curve, though single readings can be large or run the other way;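 further: % of control where 0% means no effect; miR-21 action dims this reporter so a rising signal means less miR-21 action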
#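 HeLa cells endogenously expressing miR-21, stably carrying CMV-driven firefly luciferase with a downstream miR-21 binding site, 2000 cells/well. Titrations up to approximately 40 uM, 48 hours; luciferase luminescence read.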
# Rango dissoc inh = inhibitors of RanGTP-induced Rango-importin beta complex dissociation; O95149+P62826; Biochemical FRET Rango-importin beta, RanGTP-induced dissociation; Potency, µM (highest dose often 46.1 µM), for the others: top-dose activity change, negative = inhibition; hit rate 0.071% among 340,000; AID 540253; active means falling FRET ratio curve, often poorly fitted, with flat reads before Ran was added; inconclusive means other falling curves, or compound fluorescence or quenching; inactive means flat or rising ratio curve;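 further: potency means the concentration at half of the fitted maximal effect; % of control where 0% means no effect; nearly all actives have a fitted effect of over 45% in size; -100% = wells without RanGTP and RCC1; the record marks most hits as doubtful in a second field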
#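 Rango (0.1 uM)–importin beta (0.25 uM) complex; RanGTP-RCC1 trigger; 45 min RT; CFP/YFP FRET read.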
# Starred values were filed as active, the others as inactive; ? = inconclusive; . = no result given; & = joins results of further samples. Some of the compounds tested, so the mix of outcomes need not match the whole.
GLA inh pH 4.5	Rango-impB inh	miR-21 FLuc	Rango dissoc inh	SMILES
-2	4.0%	7%	2%	COc1cccc(C(=O)CSc2nnc(CNc3nc(-c4ccccc4)cs3)n2C)c1
.	-3.1%	-3%	-14%	CCn1c(CC(=O)Nc2ccccc2F)nnc1SCC(=O)Nc1nncs1
.	-1.3%	-1%	11%	COc1cccc(CCNC(=O)c2ccc(OC)c(OC3CCN(C(C)C)CC3)c2)c1
3	-0.5%	-34%	7%	CC(=O)Nc1cnc(NC(=O)c2cccc(F)c2)cc1C
.	3.4%	-18%	16%	CSCC(=O)NC1CCCc2c1cnn2-c1ccc(C)c(C)c1 (stereo not drawn)
-9&0&2&-4	0.4%	.	10%	O=c1cc(-c2ccccc2)oc2cc(O)cc(O)c12
-28	-1.8%	-8%	-4%	O=C(O)Cn1nnc2ccccc21
7	1.6%	-9%	35%	COc1cc(NC(=O)C2CCN(S(=O)(=O)c3cccnc3)CC2)cc(OC)c1OC
.	-1.9%	-11%	-5%	CCc1nnc(NC(=O)c2cc(Cl)ccn2)s1
.	-2.5%	.	-2%	CCc1ccc(NC(=O)C(=O)NCC2CCCN2S(=O)(=O)c2ccccc2)cc1 (stereo not drawn)

# Four entries from above, ordered by SMILES length, largest number first:
GLA inh pH 4.5	Rango-impB inh	miR-21 FLuc	Rango dissoc inh	SMILES
.	-1.3%	-1%	11%	COc1cccc(CCNC(=O)c2ccc(OC)c(OC3CCN(C(C)C)CC3)c2)c1
.	3.4%	-18%	16%	CSCC(=O)NC1CCCc2c1cnn2-c1ccc(C)c(C)c1 (stereo not drawn)
-9&0&2&-4	0.4%	.	10%	O=c1cc(-c2ccccc2)oc2cc(O)cc(O)c12
-28	-1.8%	-8%	-4%	O=C(O)Cn1nnc2ccccc21

# Other compounds follow.
GLA inh pH 4.5	Rango-impB inh	miR-21 FLuc	Rango dissoc inh	SMILES
.	-1.3%	.	-9%	COc1ccc(CNC(=O)C[C@H]2C[C@H](C(=O)N(C(C)C)C(C)C)[C@@]3(C)c4[nH]c5cc(CCC(=O)N(C)C)ccc5c4CCN3C2=O)cc1OC
.	2.8%	.	-9%	COc1ccc(NC(=O)CN(C)C(=O)C2CSC3(C)CCC(=O)N23)cc1 (stereo not drawn)
2	-0.7%	0%	-13%	COc1ccc(Cl)cc1NC(=O)c1cc(-c2cc(C)ccc2O)n[nH]1
.	1.9%	-1%	-3%	Cc1ccc(N(CC(O)CN2CCOCC2)S(=O)(=O)c2ccc([N+](=O)[O-])cc2)cc1 (stereo not drawn)
-5	-1.4%	25%	-11%	CC(C)CNC(=S)N1CCC(c2nc(-c3ccc(F)cc3)no2)CC1
.	-2.7%	4%	-12%	Cc1ccc(N(C(=O)c2snc(C(N)=O)c2N)C(C(=O)NCC2CCCO2)c2ccc3ncccc3c2)cc1 (stereo not drawn)
-12	0.4%	-7%	-9%	O=S(=O)(c1ccc(Cl)cc1)N1CCC(n2cccc2)CC1
0	5.4%	1%	-7%	CCOC(=O)C1(CCCc2ccccc2)CCN(C(=O)c2cncs2)CC1
3	-0.2%	-18%	1%	COc1ccc(/C=N/N=C/c2c[nH]c(=O)c(C#N)c2Nc2ccccc2)cc1
5	-1.6%	-7%	-8%	Cc1ccc(-c2ccc(=O)n(CCC(=O)NCc3ccccn3)n2)cc1
4	0.4%	0%	0%	CN(c1ccccc1)S(=O)(=O)c1ccc(Cl)c(C(=O)OCC(N)=O)c1
.	0.5%	-18%	-6%	CCOC(=O)c1c(S(=O)(=O)NCCc2ccccc2)c(C)n(C)c1C
2	3.9%	15%	-21%	CC(C)(C)CC(C)(C)NCC(=O)Nc1c2c(nc3ccccc13)CCC2
.	-1.5%	.	8%	C[C@H](CO)N1C[C@H](C)[C@@H](CN(C)S(=O)(=O)c2cccs2)Oc2ccc(NC(=O)Nc3ccc4c(c3)OCO4)cc2C1=O
-4	1.3%	8%	-17%	O=[N+]([O-])c1ccc(S(=O)(=O)CC(CN2CCOCC2)N2CCOCC2)cc1 (stereo not drawn)
-20	?	-4%	-13%	C/C(=C/C(=O)Nc1cccc(F)c1)N1CCCC1
2	0.0%	-1%	-3%	COc1ccccc1N1CCN(S(=O)(=O)c2cnc[nH]2)CC1
-4	4.3%	-18%	15%	CCc1noc(C)c1C(=O)Nc1ncc(C)s1
3	-0.6%	-2%	1%	CN1CCN(C(=O)c2cnn(-c3ccccc3)c2NC(=O)c2ccccc2F)CC1
3	1.1%	0%	4%	COc1ccc(CNC(=O)CCc2c(C)nc3ncnn3c2C)cc1
-14	?	21%	1%	COc1ccc(-c2[nH]c(-c3ccc(SC)cc3)nc2SCC(=O)Nc2nccs2)cc1
20	0.0%	-4%	-10%	Nc1nnc(SCC(=O)c2ccco2)s1
-2	3.9%	-52%	1%	O=C(/C=C/c1ccccc1)Nc1cccnc1Oc1ccccc1F
.	-0.5%	.	-4%	Cc1cc(NC(=O)C(C)SCC(=O)Nc2nnc(CC(C)C)s2)no1 (stereo not drawn)
0	-3.2%	-2%	2%	Cc1cccc(C)c1NC(=S)NNc1ncc(C(F)(F)F)cc1Cl
-8	0.1%	-11%	-11%	Cc1cc(C)c(S(=O)(=O)N2CCCCCC2)cc1Br
.	0.0%	-12%	11%	Cc1ccc(SCC(=O)NCc2ccccc2C)cc1
.	-5.2%	8%	-19%	Cc1ccc(CN2CCSc3ccc(C(=O)N4CCOCC4)cc32)cc1
-5	-3.6%	-11%	?	CCCc1cc(=O)[nH]c(/N=C(\N)Nc2ccccc2)n1
.	-3.9%	.	-2%	COc1ccc(C2(c3ccc(OC)cc3)NC(=O)N(CC(=O)N(C)C3CCC(C)CC3)C2=O)cc1 (stereo not drawn)
.	1.5%	4%	-12%	COC(=O)c1cccc(NC(=O)c2ccc3c(c2)C(=O)N(Cc2cccnc2)C3=O)c1
1	0.1%	6%	-25%	Cc1ccc(C(=O)OCC(=O)Nc2cccc(S(=O)(=O)NC3=NCCCCC3)c2)c(C)c1
4	1.6%	3%	-18%	O=C(CN1C(=O)c2ccccc2C1=O)Nc1sc2c(c1C(=O)NCc1ccco1)CCCC2
1	-0.1%	5%	-9%	Cn1c(SCC(=O)Nc2ccccc2)nc2c([nH]c3ccccc32)c1=O
.	2.7%	.	11%	COc1ccccc1CNS(=O)(=O)c1cc(C(=O)NCc2ccccn2)c(Cl)cc1Cl
11	-4.3%	-2%	13%	O=C(CSc1nnc(CNC(=O)c2ccco2)o1)c1ccc(Cl)cc1
.	-0.1%	.	-2%	O=C(Nc1nnc(-c2ccc(Cl)s2)o1)C1CCCCC1
-6	3.9%	-14%	-10%	CCOc1ccc2nc(NCCNC(=O)C(C)C)c(C)cc2c1
7	3.8%	-4%	-5%	Cn1c(SCC(=O)c2ccc(F)cc2)nnc1-c1cccnc1
-7	?	?	-22%	CCCCN(CCCC)S(=O)(=O)c1ccc(NC(=O)c2cccs2)cc1
.	-0.2%	16%	-7%	Cc1[nH]c2ccccc2c1C(=O)C(=O)N1c2ccccc2CC1C (stereo not drawn)
-7	7.5%	-49%	-5%	Cn1nccc1C(=O)Nc1ccc(Cl)cc1
1	-2.2%	-2%	10%	CC(=O)N1N=C(c2ccncc2)OC12CCCCCC2
-8	3.7%	3%	-21%	O=C(c1cc2cc([N+](=O)[O-])ccc2oc1=O)N1CCN(c2ncccn2)CC1
-7	?	-3%	-26%	CC(Oc1ccc(F)cc1F)C(=O)/C=C/N(C)C (stereo not drawn)
-14	-3.8%	-3%	-17%	O=C(O)CCc1nn2c3ccccc3n(Cc3ccccc3F)c2nc1=O
.	-0.6%	0%&3%	7%	CC1CCN(S(=O)(=O)c2cccc(C(=O)N(C)C3(C)CCS(=O)(=O)C3)c2)CC1 (stereo not drawn)
-10	0.2%	3%	-11%	Cc1noc(C)c1S(=O)(=O)N1CCN(c2ccccc2)CC1
-3	1.2%	8%	-7%	CCOC(=O)c1[nH]c2ccc(OCC)cc2c1NC(=O)CN1CCN(c2ccccn2)CC1
-5&2	0.2%	-2%	-1%	CN1CCC(OC(c2ccccc2)c2ccccc2)CC1

# Random excerpt: 2 compounds from above, in no set order.
GLA inh pH 4.5	Rango-impB inh	miR-21 FLuc	Rango dissoc inh	SMILES
-7	7.5%	-49%	-5%	Cn1nccc1C(=O)Nc1ccc(Cl)cc1
-10	0.2%	3%	-11%	Cc1noc(C)c1S(=O)(=O)N1CCN(c2ccccc2)CC1

# Compound profiles (already shown):
# CC1CCN(S(=O)(=O)c2cccc(C(=O)N(C)C3(C)CCS(=O)(=O)C3)c2)CC1 (stereo not drawn) in the list: GLA inh pH 4.5: .; Rango-impB inh: -0.6%; miR-21 FLuc: 0%&3%; Rango dissoc inh: 7%
# CCOC(=O)c1[nH]c2ccc(OCC)cc2c1NC(=O)CN1CCN(c2ccccn2)CC1 in the list: GLA inh pH 4.5: -3; Rango-impB inh: 1.2%; miR-21 FLuc: 8%; Rango dissoc inh: -7%

# (listing goes on)
GLA inh pH 4.5	Rango-impB inh	miR-21 FLuc	Rango dissoc inh	SMILES
25	1.1%	-45%	-8%	CNC(=O)c1cc2c(s1)-c1ccccc1CC2
.	-2.1%	.	-12%	O=S(=O)(c1ccccc1)N1N=C(c2ccc(Cl)cc2)CC1c1ccco1 (stereo not drawn)
-3	0.0%	5%&5%	3%	Cc1cccc(C)c1Nc1c(-c2ccccc2O)nc2ncccn12
2	0.6%	2%	2%	CCCCCCn1nc(C(=O)OCC(=O)NC2CCS(=O)(=O)C2)c2ccccc2c1=O (stereo not drawn)
-28	0.9%	11%	8%	O=C(Cn1cnc2ccccc2c1=O)Nc1cccc(S(=O)(=O)N2CCCCC2)c1
-1	?	-10%	?	COc1ccc(-c2cc(C(F)(F)F)n3ncc(C(=O)O)c3n2)cc1OC
0	-0.2%	-38%	4%	COc1ccc(OCCC(=O)N2CCCCC2)cc1
-13	0.4%	-2%	1%	Cc1cc(-n2nc(C)cc2C)n2nc(C)c(-c3ccc(Cl)cc3)c2n1
1	0.0%	-1%	7%	COC(=O)c1cc(NC(=O)c2nn(C)c(=O)c3ccccc23)cc(C(=O)OC)c1
-14	1.7%	12%&20%	22%	CCOc1ccc(CNC(=O)c2ccc(Sc3ccc(Cl)cc3)c(NC(C)=O)c2)cc1OC
.	-4.0%	.	23%	COc1ccccc1OCCNC(=O)C1CC(=O)N(c2ccc3c(c2)OCCO3)C1 (stereo not drawn)
5	?	-8%	?	OCCNc1nc(-c2ccccc2)c2cc(Cl)ccc2n1
.	-3.0%	-5%	1%	O=C(NC1CCN(Cc2ccccc2)CC1)c1c(Cl)cccc1Cl
11	-0.4%	-3%	-5%	Cc1ccc2c(c1)CN1CN2Cc2cc(C)ccc21
5	.	-2%	.	Cc1ccc(-c2nn3c(-c4cccc(Cl)c4)nnc3s2)cc1
.	-0.1%	1%	11%	CCOc1ccc(C2=CSC3=NCCN23)cc1Cl
10	?	-3%	?	CCOC(=O)c1cc(C(=O)c2cc(Cl)ccc2O)coc1=N
3	-3.6%	-1%	-16%	CCOC(=O)CSc1nc2ccc(N)cc2s1
2	0.7%	-6%	-9%	O=C(CCn1c(SCC(=O)c2ccccc2)nc2ccccc2c1=O)NCc1ccc(F)cc1
.	-2.9%	12%	9%	O=C(Cc1cccc(F)c1F)NC1CCCN(Cc2ccc(Cl)cc2)C1 (stereo not drawn)
-9	1.4%	3%	18%	CCN(CC)S(=O)(=O)c1ccc2oc(C(=O)O)c(C)c2c1
.	20%	.	-4%	O=C(Nc1ccon1)c1nc[nH]c1C(=O)NCc1ccccc1
.	?	-51%	-15%	COc1ccc(C(=O)CSc2cc(C)[nH]c(=O)n2)cc1
2	-1.0%	-4%	1%	CCN1CCN(C(=O)CN(C)S(=O)(=O)c2ccc3ccccc3c2)CC1
0	?	0%	-3%	Cc1nc(CNC(=O)CC2C(=O)NCCN2Cc2ccoc2)nc2c1CCCC2 (stereo not drawn)
2	-0.4%	7%	0%	COc1ccccc1C(CC(=O)c1ccccc1)CC(=O)c1ccccc1
2	-1.5%	-2%	1%	Cc1oc(-c2cccc(C(F)(F)F)c2)nc1CN1CCC[C@H]1CO
